Source: PubChem (several laboratories)
Calb FLC: affects C. albicans growth with fluconazole. growth inhibition, % (test concentration not listed). 0.57% of 300,000 active. C. albicans CaCi-2 (fluconazole-resistant clinical isolate) + fluconazole, Alamar Blue growth, 48 h. AID 1979;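 active = most replicates above 75%; inconclusive = exactly half above 75%; inactive = most below 75%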;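 note: all wells also contain fluconazole at 8 µg/ml as a sub-toxic cotreatment; 0% = median of DMSO wells and 100% = median of geldanamycin control wells; wells of about 8 µL received 7.5 nL stock; the first replicate is given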
RanGTP-Imp inh: disruptors of Ran-importin-beta complex formation – biochemical, FRET, CFP-Ran, YFP-importin-beta, homogeneous, primary screen | cell-free CFP-Ran/YFP-importin-beta FRET ratio | AID 2216 | 1.1% of 300,000 active | inhibition, % (concentration not given with the values);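 active = most replicates above 15%; inconclusive = exactly half above 15%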;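 note: 0% = DMSO wells and 100% = Ran loaded with GDP instead of GTP; wells of about 40 µL received 100 nL stock; the first replicate is given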
Beta2AR agonist: human beta-2 adrenergic receptor agonism by FAP; AID 504454; Am2.2-beta2AR cells, FAP receptor internalization, flow cytometry; reference of the scale not given here; P07550; 0.43% of 340,000 active; response, % (test concentration not listed);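 active = response above a set limit, near 3 SD of response in nonfluorescent compounds, cut at about 42% in these data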;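 note: stock transfer was 100 nL into about 11 µL; a reference agonist was the positive control; negative values mostly stem from fluorescent compounds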
T cruzi inh: T. cruzi replication inhibition; 1.4% of 300,000 active; T. cruzi beta-gal in NIH3T3, luminescence, 90 h; inhibition, % (no concentration beside the values); AID 1885;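 active = mean inhibition across valid replicates above about 55%, limit read from the data; inconclusive = mean below that limit but half or more replicates reach it; inactive = mean below it, under half of replicates reach it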;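 note: signal also drops with host cell toxicity which is not excluded here; 0% = plate median of DMSO wells and 100% = zero luminescence signal; higher percent means less beta-gal luminescence so fewer parasites; stock transfer was 50 nL into about 50 µL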
Beta cell apopt: beta cell apoptosis inhibition; INS-1E cytokine-induced death, ATP luminescence, 48 h; percent of positive-control rescue, neutral wells zero; AID 435005; 0.8% of 300,000 active; protection from apoptosis, % (no concentration beside the values);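 active = all replicates at 75% or more, or half of them and the mean; inconclusive = half reach 75% but not the mean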;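 note: 0% = cytokine-treated negative control wells and 100% = positive control rescue; higher means more ATP so stronger rescue from cytokine killing; wells of about 40 µL received 100 nL stock; the first replicate is given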
Bfl-1 A1 inh: inhibitors of the anti-apoptotic protein A1, read as caspase activation | caspase activation, % (test concentration not listed) | MEF A1-2A-BIM cells, Caspase-Glo 3/7 luminescence, 3 h; percent of clofoctol response, vehicle zero | 0.066% of 330,000 active;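 active = over half of replicate activation scores above 10%, or exactly half above 10 with the replicate mean above 10; inconclusive = replicate mean below 10 yet half the replicates above 10; inactive = over half of replicates below 10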;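 note: wells of about 30 µL received 50 nL stock; many hits fall short of the cut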
LANA-H2A inh: blocks KSHV LANA binding to histone H2A/H2B; Q9QR71; cell-free LANA-H2A/H2B peptide, fluorescence polarization; inhibition, % (no concentration beside the values); 0.6% of 320,000 active; AID 2629; in the data active = inhibition mostly above about 10%, no sharp cut-off; inactive = mostly below about 6.7%;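 note: stock transfer was 7.5 nL into about 10 µL; 0% = median of vehicle wells and 100% = median of positive control wells; one replicate is shown; the record names a cut of 25% in any replicate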
Target sequence (Q9QR71 whole entry, looked up): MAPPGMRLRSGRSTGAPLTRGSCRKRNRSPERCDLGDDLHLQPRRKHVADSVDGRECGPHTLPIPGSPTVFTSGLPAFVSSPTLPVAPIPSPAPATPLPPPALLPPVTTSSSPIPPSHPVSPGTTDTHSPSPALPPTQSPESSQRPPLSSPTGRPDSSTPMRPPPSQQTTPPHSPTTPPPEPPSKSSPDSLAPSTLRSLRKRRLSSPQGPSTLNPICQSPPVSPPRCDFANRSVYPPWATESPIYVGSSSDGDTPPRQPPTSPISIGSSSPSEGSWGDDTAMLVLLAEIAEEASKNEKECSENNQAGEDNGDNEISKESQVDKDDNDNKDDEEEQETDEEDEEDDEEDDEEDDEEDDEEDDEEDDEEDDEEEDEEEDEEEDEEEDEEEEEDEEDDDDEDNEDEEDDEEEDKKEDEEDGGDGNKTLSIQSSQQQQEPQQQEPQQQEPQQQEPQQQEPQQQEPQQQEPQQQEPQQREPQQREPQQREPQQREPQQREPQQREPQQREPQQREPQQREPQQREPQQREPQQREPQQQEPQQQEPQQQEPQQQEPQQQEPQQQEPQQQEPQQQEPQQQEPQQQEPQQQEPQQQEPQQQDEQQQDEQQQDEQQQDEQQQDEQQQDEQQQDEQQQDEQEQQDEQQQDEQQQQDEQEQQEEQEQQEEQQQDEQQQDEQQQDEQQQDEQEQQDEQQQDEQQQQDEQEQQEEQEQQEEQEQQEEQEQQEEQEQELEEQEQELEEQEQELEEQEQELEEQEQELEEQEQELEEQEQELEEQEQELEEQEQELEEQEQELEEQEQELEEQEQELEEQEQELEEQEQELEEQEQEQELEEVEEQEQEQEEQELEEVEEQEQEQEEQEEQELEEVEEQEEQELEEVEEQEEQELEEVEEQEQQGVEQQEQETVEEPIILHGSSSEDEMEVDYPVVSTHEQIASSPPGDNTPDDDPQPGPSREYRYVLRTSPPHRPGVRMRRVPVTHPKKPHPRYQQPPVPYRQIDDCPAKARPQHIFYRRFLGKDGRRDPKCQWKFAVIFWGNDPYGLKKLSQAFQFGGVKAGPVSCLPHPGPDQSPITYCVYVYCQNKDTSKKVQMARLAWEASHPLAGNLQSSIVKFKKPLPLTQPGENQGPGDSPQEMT
UCH37 DUB inh: inhibitors of human deubiquitinating enzyme UCH37 | purified proteasome/UCH37, Ub-AMC cleavage fluorescence | inhibition, % (test concentration not listed) | 0.33% of 330,000 active | AID 588478;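 active = mean of two replicates above 20%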;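 note: 0% = compound-free wells with enzyme and 100% = wells lacking proteasome; stock transfer was 100 nL into about 20 µL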
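Material: human UCH37 enzyme supplied as purified proteasome complex. Measure: % inhibition of Ub-AMC cleavage fluorescence. Medium: pH 7.4 Tris-HCl (50 mM) with ovalbumin, ATP-MgCl2, DTT. Times: 30 min preincubation with enzyme, 25 min cleavage at room temperature. Detection: AMC fluorescence intensity at 355/460 nm.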
* = called active by the depositor; i = inactive; ? = inconclusive; . = not tested or not shown.

SMILES	Calb FLC	RanGTP-Imp inh	Beta2AR agonist	T cruzi inh	Beta cell apopt	Bfl-1 A1 inh	LANA-H2A inh	UCH37 DUB inh
COc1ccc(CC(=O)Nc2ccccc2NC(=O)Cc2ccc(OC)cc2)cc1	4	-0.7	6	-3	-1	1.2	1.1	-1.4
Cc1cccc(OCC2=NS(=O)(=O)c3ccccc3N2)c1	24	10.0	4	-6	.	-3.1	-0.3	-1.5
CC(NCc1ccc(F)cc1)C(=O)Nc1cc(S(=O)(=O)N2CCCCC2)ccc1Cl (configuration not stated)	-23	0.3	-8	6	1	-0.9	9.0	.
COc1ccc(N2CCN(C(=S)NCc3ccc(C)cc3)CC2)cc1	-32	-1.4	-15	4	-9	-1.9	-2.2	4.2
CC(=O)N1CCN(C(=O)c2cccc(S(=O)(=O)NCc3ccccc3)c2)CC1	-4	2.4	-8	-5	-1	-0.3	5.3	4.4
CC(C)c1nnc(NC(=O)CC(=O)Nc2ccccc2C(=O)O)s1	-11	9.1	-3	-16	0	0.6	-2.2	2.7
C=CCN1C(=O)c2ccc(C(=O)N3CCC(C(N)=O)CC3)cc2C1=O	-5	-0.6	3	2	-4	0.3	-1.0	1.3
CCOC(=O)c1c(C)[nH]c(C(=O)NNC(=O)c2ccccc2)c1C	5	0.8	-8	12	-4	-1.2	i	-1.1
Cc1cc(NC(=O)CCC(=O)N(c2ccc(F)cc2)C(C(=O)NC2CCCC2)c2ccncc2)no1 (configuration not stated)	2	1.5	-2	-5	-8	-0.5	2.5	-0.9
Cc1[nH]c2ccccc2c1/C=N/NS(=O)(=O)c1ccccc1	-5	0.1	12	-6	3	2.0	2.3	.
CC1CCC2C(=O)N(c3cccc(C(=O)Nc4ccccc4Cl)c3)C(=O)C2C1 (configuration not stated)	12	3.3	-6	-9	0	0.7	-3.2	-0.3
O=c1c2ccccc2nc2n1CCCCN2	-18	1.2	3	-5	-4	0.0	3.6	-124
O=C(CCNS(=O)(=O)c1ccccc1Cl)OCc1nnc(-c2ccccc2Cl)o1	.	.	15	.	11	1.2	-2.5	4.7
Cc1cccc(N2CN(S(=O)(=O)c3cccc([N+](=O)[O-])c3)c3nc4ccccc4nc32)c1	.	.	0	.	-4	4.8	0.3	5.8
COc1ccc(NC(=O)CSc2nnc(-c3ccco3)n2N)cc1Cl	-6	2.5	-6	5	-1	0.3	-5.2	1.7
CC1CCCN(C(=O)CN2C(=O)c3ccccc3C2=O)C1 (configuration not stated)	1	0.9	1	-6	-2	0.8	-15	3.8
CC12CCCCC1N(O)C(=O)C(=O)N2O (configuration not stated)	-6	-1.3	-4	-3	-3	-0.1	11	2.1
Cn1cccc1Cc1nnc(SCC(=O)NC2CCCCC2)n1-c1ccc(F)cc1	0	5.2	-4	-16	-5	0.3	4.3	3.6
CCC(=O)N1CCc2cc(S(=O)(=O)NCCCN3CCN(Cc4ccccc4)CC3)ccc21	-26	-0.8	-3	1	7	0.7	-1.7	4.9
COCCNC(=O)c1cc2ncc(Br)cn2n1	0	-3.0	2	-20	-5	0.3	-1.4	1.6
O=[N+]([O-])c1ccc(S(=O)(=O)Nc2ccccn2)cc1	4	-5.1	2	1	-5	1.5	9.0	3.2
CCn1c(O)c(N=Nc2ccc3ccccc3n2)c2ccccc21	28	-1.0	-9	33	6	-7.4	-2.9	2.7
OC[C@@H](O)[C@@H](O)CO	.	.	-3	.	.	0.1	8.2	2.6
O=[N+]([O-])c1cccc(S(=O)(=O)NC2CC3CCC2C3)c1 (configuration not stated)	-13	2.8	-32	1	-5	0.5	1.6	1.5
Cc1ccc(-n2ncc3c(SCC(=O)NNC(=O)C(C)C)ncnc32)cc1	5	-0.2	-1	-4	-3	-6.2	-2.4	-9.1
CCOC(=O)CSc1nnc(CSc2nc(N)c3c(C)c(C)sc3n2)n1-c1ccccc1	-1	0.0	1	15	-2	-1.4	5.8	0.2
Cc1ccc(NC(=O)C2CCCC2)cc1S(=O)(=O)N1CCOCC1	.	.	-6	.	-2	1.4	5.5	0.0
CN(C)NC(=O)c1ccc([N+](=O)[O-])s1	-17	0.2	7	22	5	-0.2	1.7	6.5
CCOc1ccccc1N/C(=N/c1nc(C)cc(C)n1)NC(=O)Nc1ccc(Cl)c(Cl)c1	-9	3.5	.	42	1	-0.4	-6.3	4.8
Cc1nn(-c2ccccc2)c(Cl)c1/C=N/NC(=O)c1ccccc1NS(=O)(=O)c1cccs1	4	0.3	25	2	14	0.0	6.8	.
Cc1c(-c2cccc(NC(=O)c3cccs3)c2)nc2ncccn12	-6	-2.2	-24	11	6	-0.9	-8.8	i
COc1ccc(-n2ncc(C(C)NS(=O)(=O)c3cccs3)c2C)cc1 (configuration not stated)	10	4.7	1	-17	0	-0.5	-0.5	1.0
CSc1nc(C)[nH]c(=O)c1C#N	2	-0.3	1	-25	5	-0.1	-7.6	1.7
N#CC1=C(SCc2ccccc2)NC(=O)CC1c1ccc(O)cc1 (configuration not stated)	0	-2.7	30	-11	-1	-0.1	9.0	1.1
CC(C)OC(=O)CC(NC(=O)OC(C)(C)C)c1ccccc1 (configuration not stated)	-2	0.8	.	1	-4	-1.2	3.7	2.6
O=C1CC(SCCc2nc3ccccc3[nH]2)C(=O)N1c1ccc(F)c(Cl)c1 (configuration not stated)	7	2.7	0	-18	-5	-1.9	-7.1	0.6
CCCOCC1CC2(SC(=Nc3ccc(C)cc3)NC2=O)C(=O)O1 (configuration not stated)	-7	-2.8	-4	-18	-4	0.2	-2.1	4.0
O=C(CCNC(=O)c1ccc(Br)cc1)NCC1CCCO1 (configuration not stated)	-3	-0.6	-4	0	-1	0.2	1.2	0.9
COc1cc(/C=C2/C(=N)N3C=CSC3=NC2=O)ccc1OCCOc1ccc(NC(C)=O)cc1	3	3.8	-10	-5	-2	-0.2	1.7	3.2
O=C(COc1c(Br)cc(Br)c2cccnc12)N1CCCCC1	1	0.7	1	12	-1	0.6	2.1	-2.1

In another format: entries from further up
mol: COc1ccc(-n2ncc(C(C)NS(=O)(=O)c3cccs3)c2C)cc1 (configuration not stated)
  Calb FLC: 10 | RanGTP-Imp inh: 4.7 | Beta2AR agonist: 1 | T cruzi inh: -17 | Beta cell apopt: 0 | Bfl-1 A1 inh: -0.5 | LANA-H2A inh: -0.5 | UCH37 DUB inh: 1.0
mol: O=C(CCNC(=O)c1ccc(Br)cc1)NCC1CCCO1 (configuration not stated)
  Calb FLC: -3 | RanGTP-Imp inh: -0.6 | Beta2AR agonist: -4 | T cruzi inh: 0 | Beta cell apopt: -1 | Bfl-1 A1 inh: 0.2 | LANA-H2A inh: 1.2 | UCH37 DUB inh: 0.9

Further compounds follow:
SMILES	Calb FLC	RanGTP-Imp inh	Beta2AR agonist	T cruzi inh	Beta cell apopt	Bfl-1 A1 inh	LANA-H2A inh	UCH37 DUB inh
O=C(Nc1ccc(S(=O)(=O)Nc2ncccn2)cc1)c1ccc(Br)o1	-12	?	-2	2	-1	1.4	-1.9	2.3
Nc1nc(-c2ccc3ccccc3c2)cs1	?	-1.5	21	-9	.	-7.3	-2.4	-4.6
C=CCc1c(C)nc(SC)nc1Nc1ccc(C)cc1	14	6.0	15	3	25	0.3	-2.7	1.7
COc1ccc(NC(=S)N(CCc2c(C)[nH]c3ccc(C)cc23)Cc2cccs2)cc1	-17	-5.3	4	21	.	-1.5	0.8	3.7
CCc1ccc(NC(=O)C2CC(=O)Nc3ncnn32)cc1 (configuration not stated)	-20	3.2	-3	-25	.	-1.0	-1.8	.
CCOc1ccccc1C(=O)N(CCC(=O)OC)c1ccccn1	13	1.5	5	-4	-1	2.1	1.4	4.9
C=CCNC(=O)C1CCCN(S(C)(=O)=O)C1 (configuration not stated)	0	-1.6	5	-20	-4	-0.5	2.0	2.5
CCOC(=O)c1sc(-c2ccc(Cl)cc2Cl)nc1O	10	-37	1	-1	-4	-1.0	0.6	-114
COC(=O)c1cc(Br)c(=O)n(-c2ccccn2)c1	0	?	-2	-10	-11	-0.8	4.2	0.4
CCNC(=O)CSc1nnc(C2CC2)n1-c1ccccc1	-6	-3.1	-15	-10	-8	-0.6	2.1	-2.4
Cc1onc(-c2ccccc2Cl)c1C(=O)Nc1ccc(S(=O)(=O)Nc2nccs2)cc1	12	-5.7	-4	-7	.	0.9	1.7	30*
CS(=O)(=O)N(CC(=O)N/N=C/c1cc([N+](=O)[O-])ccc1Cl)c1ccccc1	5	0.6	-3	-2	.	-0.5	-1.1	.
CN(C)C(=O)C(=O)c1c(-c2ccccc2)cc2ccccn12	1	3.4	4	6	-2	0.4	7.1	7.5
COCCNC(=O)CN(Cc1ccc(Cl)cc1)S(C)(=O)=O	-7	0.8	-6	-9	-1	-0.5	-2.2	-0.2
COc1ccc2cc(-c3[nH]ncc3CN3CCCCO3)ccc2c1	30	-6.6	-4	19	-5	0.3	-3.0	0.9
Cc1ccc(Cl)cc1NS(=O)(=O)N1CCOCC1	-15	0.7	5	1	-3	3.2	5.3	2.8
Brc1cnc2ccccc2c1N1CCCCC1	1	-2.0	-2	0	-9	0.1	-0.6	4.8
CCc1ccc(NS(=O)(=O)c2ccc3[nH]cc(C(=O)N(C)Cc4ccco4)c(=O)c3c2)cc1	-9	6.0	-6	-20	5	-0.7	-3.4	-0.8
CC(C)N1CCN(C(=O)c2ccc(OC3CCN(CCc4ccccc4)CC3)cc2)CC1	7	2.9	1	-23	-3	-0.2	2.9	1.5
Cn1nnnc1SCC1=C(C(=O)O)N2C(=O)C(NC(=O)Cn3nc(C(F)F)cc3C3CC3)C2SC1 (configuration not stated)	?	5.4	-4	-1	-5	0.3	-1.0	2.9
COc1ccc(C2CC(c3cccs3)=NN2S(C)(=O)=O)cc1 (configuration not stated)	9	2.6	-1	-13	-1	-1.6	-2.3	0.4
COc1ccc(C)cc1N1CC(C(=O)Nc2ccccc2C(=O)NC2CC2)CC1=O (configuration not stated)	.	.	-8	.	-2	-0.8	7.0	-1.3
Cc1ccc(C(=O)Nc2nc3ccc(Cl)cc3s2)o1	1	-2.6	4	-13	.	-3.4	-2.6	-6.4
CC(C)Cn1c(N)c(C(=O)COC(=O)c2cc(C(F)(F)F)nc3ccccc23)c(=O)n(C)c1=O	.	.	.	.	0	-0.6	-4.5	-1.6
CC(=O)Nc1ccc(NC(=O)CSc2nc(N)c(NC(=O)c3ccccc3F)c(=O)[nH]2)cc1	4	2.2	0	2	0	-0.2	1.1	1.5
Cc1oc(-c2ccc(Cl)cc2)cc1C(=O)/C(C#N)=C/Nc1cccc(OC(F)(F)F)c1	0	0.5	9	-27	-1	-1.6	0.7	.
Cc1ccc(O)c(C(=O)/C=C/c2ccc3c(c2)OCCO3)c1	9	3.4	-3	-8	1	0.4	-1.1	5.5
CCN(C(=O)COC(=O)/C=C/c1ccc(S(=O)(=O)N2CCc3ccccc32)cc1)C1CCS(=O)(=O)C1 (configuration not stated)	24	0.1	5	-2	.	0.7	0.6	2.1
COc1ccc(Cl)cc1NC(=O)c1cc(-c2ccccc2O)n[nH]1	6	-0.8	-2	-2	18	0.2	16*	0.5
COc1ccc(C2/C=C\CN(C(=O)CC(C)(C)C)CC(=O)N2Cc2ccc(F)cc2)cc1 (configuration not stated)	3	1.6	-3	-7	3	-0.8	-0.7	2.1
CCS(=O)(=O)N1CCN(C2Cc3ccccc3C2)CC1	19	.	10	10	-3	0.1	4.4	1.5
